Screens (PubChem)
T cruzi inh = blocks replication of Trypanosoma cruzi | hit rate 1.4% among 300,000 | T. cruzi beta-gal in NIH3T3, luminescence, 90 h | inhibition, % (concentration not given with the values);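 active = mean inhibition across valid replicates above about 55%, limit read from the data; inconclusive = mean below that limit but half or more replicates reach it; inactive = mean below it, under half of replicates reach it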;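 also: signal also drops with host cell toxicity which is not excluded here; 0% = plate median of DMSO wells and 100% = zero luminescence signal; higher percent means less beta-gal luminescence so fewer parasites; stock transfer was 50 nL into about 50 µL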
Calb FLC = affects C. albicans growth with fluconazole; C. albicans CaCi-2 (fluconazole-resistant clinical isolate) + fluconazole, Alamar Blue growth, 48 h; growth inhibition, % (concentration not given with the values); hit rate 0.57% among 300,000;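 active = most replicates above 75%; inconclusive = exactly half above 75%; inactive = most below 75%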;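 also: all wells also contain fluconazole at 8 µg/ml as a sub-toxic cotreatment; 0% = median of DMSO wells and 100% = median of geldanamycin control wells; wells of about 8 µL received 7.5 nL stock; the first replicate is given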
A1 inh = inhibitors of the anti-apoptotic protein A1, read as caspase activation. hit rate 0.066% among 330,000. caspase activation, % (concentration not given with the values). AID 2462. MEF A1-2A-BIM cells, Caspase-Glo 3/7 luminescence, 3 h; percent of clofoctol response, vehicle zero;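 active = over half of replicate activation scores above 10%, or exactly half above 10 with the replicate mean above 10; inconclusive = replicate mean below 10 yet half the replicates above 10; inactive = over half of replicates below 10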;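 also: wells of about 30 µL received 50 nL stock; many hits fall short of the cut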
B2AR ag = activates human beta-2 adrenergic receptor causing internalization. response, % (concentration not given with the values). Am2.2-beta2AR cells, FAP receptor internalization, flow cytometry; reference of the scale not given here. hit rate 0.43% among 340,000. P07550;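 active = response above a set limit, near 3 SD of response in nonfluorescent compounds, cut at about 42% in these data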;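 also: stock transfer was 100 nL into about 11 µL; a reference agonist was the positive control; negative values mostly stem from fluorescent compounds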
Target sequence (P07550 whole entry, looked up): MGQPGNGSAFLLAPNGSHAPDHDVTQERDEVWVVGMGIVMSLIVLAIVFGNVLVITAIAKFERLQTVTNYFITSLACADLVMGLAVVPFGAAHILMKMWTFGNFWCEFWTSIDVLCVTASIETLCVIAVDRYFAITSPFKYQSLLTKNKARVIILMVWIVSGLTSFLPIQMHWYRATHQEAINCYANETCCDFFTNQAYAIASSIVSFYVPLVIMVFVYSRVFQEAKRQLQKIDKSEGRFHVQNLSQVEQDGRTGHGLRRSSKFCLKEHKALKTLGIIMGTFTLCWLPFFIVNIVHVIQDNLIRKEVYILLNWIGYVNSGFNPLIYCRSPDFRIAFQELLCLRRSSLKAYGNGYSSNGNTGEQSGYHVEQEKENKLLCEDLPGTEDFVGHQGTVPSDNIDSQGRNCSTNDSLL
ALR H2O2 inh = inhibitors of human sulfhydryl oxidase ALR; P55789; purified ALR, DTT oxidation, H2O2 HRP-luminol luminescence; inhibition, % (concentration not given with the values); hit rate 3.8% among 290,000;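 active = mean and each replicate at 75% or more; inconclusive = only one of the two met; inactive = neither met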;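 also: stock transfer was 7.5 nL into about 7.5 µL; 0% = neutral wells and 100% = wells with inactivated enzyme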
Target sequence (P55789 whole entry, looked up): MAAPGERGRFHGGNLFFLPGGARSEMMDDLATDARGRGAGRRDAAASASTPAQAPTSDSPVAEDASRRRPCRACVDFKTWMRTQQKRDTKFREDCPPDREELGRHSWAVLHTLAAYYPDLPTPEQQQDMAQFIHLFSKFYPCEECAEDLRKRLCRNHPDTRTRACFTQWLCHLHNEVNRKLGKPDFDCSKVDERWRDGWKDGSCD
LANA-H2A inh = blocks KSHV LANA binding to histone H2A/H2B | cell-free LANA-H2A/H2B peptide, fluorescence polarization | Q9QR71 | AID 2629 | inhibition, % (concentration not given with the values) | hit rate 0.6% among 320,000; in the data active = inhibition mostly above about 10%, no sharp cut-off; inactive = mostly below about 6.7%;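 also: stock transfer was 7.5 nL into about 10 µL; 0% = median of vehicle wells and 100% = median of positive control wells; one replicate is shown; the record names a cut of 25% in any replicate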
Beta apoptosis = beta cell apoptosis inhibition; hit rate 0.8% among 300,000; AID 435005; INS-1E cytokine-induced death, ATP luminescence, 48 h; percent of positive-control rescue, neutral wells zero; protection from apoptosis, % (concentration not given with the values);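 active = all replicates at 75% or more, or half of them and the mean; inconclusive = half reach 75% but not the mean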;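 also: 0% = cytokine-treated negative control wells and 100% = positive control rescue; higher means more ATP so stronger rescue from cytokine killing; wells of about 40 µL received 100 nL stock; the first replicate is given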
Ecoli rRNA inh = inhibitors of bacterial rRNA selective over humanized ribosomes. GFP signal change (wild-type ribosome), % (no concentration beside the values). hit rate 1.6% among 350,000. E. coli WT GFP vs humanized-ribosome RFP mutants, fluorescence, 24 h; active compounds read low; DMSO median 0, no signal -100;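 active = significant combined selectivity score with lowered wild-type GFP, culture density cut under 30%, mutant RFP and density less affected; inactive = any of these conditions unmet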; also: one replicate is shown; some compounds called inactive have numbers as strong as hits
Ecoli rRNA inh OD600 = further read-out of Ecoli rRNA inh, marked with its call; OD600 change, %; measured here: OD600 growth;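 optical density of the mix in the first replicate; 0 = DMSO median and -100 = no signal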
Ecoli rRNA inh RFP = further read-out of Ecoli rRNA inh, marked with its call; RFP signal change, %; measured here: RFP humanized mutant strains;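 first replicate; 0 = DMSO median and -100 = no signal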
Starred values were filed as active, the others as inactive; i = inactive; u = inconclusive; x = no result given.

SMILES	T cruzi inh	Calb FLC	A1 inh	B2AR ag	ALR H2O2 inh	LANA-H2A inh	Beta apoptosis	Ecoli rRNA inh	Ecoli rRNA inh OD600	Ecoli rRNA inh RFP
COc1cc(NC(=O)COC(=O)CNC(=O)c2ccc(C)cc2)c(C)cc1[N+](=O)[O-]	-21	u	0.1	-6	-32	2.3	-6	10	7	2.9
O=C(C[n+]1cc(Br)cc(Br)c1)c1ccc(-c2ccccc2)cc1	-5	-4	-0.9	-4	x	3.0	x	0	5	1.3
Cc1ccc(S(=O)(=O)N[C@@H](C)C(=O)N2CCC(C(=O)N[C@@H](Cc3ccccc3)C(=O)O)CC2)cc1	u	-8	-1.1	-1	-10	1.4	-4	4	13	-3.1
CCC(NC(=O)OC(C)(C)C)C(=O)Oc1ccc2c3c(c(=O)oc2c1)CCC3 (centres undefined)	0	17	1.3	4	46	-11	3	x	x	x
Cc1ccc(NC(=O)/C=C/c2cccc(C(F)(F)F)c2)cc1	22	2	-0.9	5	0	-2.1	1	-1	-7	-4.8
CCc1cc2c(CN(C)Cc3ccccc3F)cc(=O)oc2cc1O	-3	10	-0.2	8	3	7.6	4	-56	-84	-23
COc1ccccc1-c1cc(C(=O)NCc2ccc(Cl)cc2)no1	9	-34	0.0	0	-14	2.2	1	x	x	x
CNc1nc(C(=O)O)nc(N2CCOCC2)n1	-8	-2	-0.2	7	-19	3.7	x	12	6	-1.5
CC(=O)c1ccc(OCc2cc(=O)n3ccsc3n2)cc1	-18	5	0.3	-10	x	x	2	x	x	x
Cc1ccc(S(=O)(=O)N2CCN(CC(=O)Nc3ccc4c(c3)CCC4)CC2)cc1C	31	-23	0.2	-7	-13	-7.2	1	x	x	x
O=C(CN1C(=O)NC2(CCCc3ccccc32)C1=O)N1CCN(C(=O)c2ccco2)CC1 (centres undefined)	-9	-6	2.0	-3	-11	-1.6	-3	x	x	x
O=C(O)CSCC(=O)NCc1csc2ccc(Cl)cc12	-27	0	0.1	-1	-3	-2.4	x	-15	-20	-1.0
O=C(N/N=C/c1cccc(Br)c1)C1CC(=O)N(c2ccccc2)C1 (centres undefined)	2	21	0.7	3	2	-11	-1	-3	-18	3.1
COc1cc(S(=O)(=O)NC2CCCC2)ccc1-n1cnnn1	-7	3	-0.4	-2	4	-2.9	1	-7	-2	-3.7
OCC1CCCN(Cc2ccc(-c3ccccc3)cc2)C1 (centres undefined)	29	22	0.5	4	99*	-1.1	-4	x	x	x
O=C(c1c(Cl)cccc1Cl)N1CCN(c2ccccn2)CC1	-17	27	0.9	3	2	-1.6	2	x	x	x
Cc1ccc(S(=O)(=O)/N=C/N(C)C)cc1	-3	-1	-0.4	-1	x	x	-1	x	x	x
CC1=CC(C)(C)NC(=S)N1c1ccc(C)cc1C	-15	-2	0.6	-2	-1	-4.5	-3	10	8	-4.8
O=C(NCC1CCN(Cc2cccc(Cl)c2)CC1)Nc1ccccc1Cl	19	-13	1.4	4	-12	-2.3	7	4	-11	-0.6
COc1ccc(/C=N\NC(=O)COc2ccccc2Cl)cc1Cn1nc(C)cc1C	9	-26	1.2	-1	-3	3.8	9	x	x	x
O=C(C[C@H]1C/C=C\CC[C@H](Cc2ccc(F)cc2)C(=O)OC[C@H]2CCCN2C1=O)NCCO	x	x	0.3	5	-2	-5.3	-4	-5	7	13
Cc1cc2ccc(C)c(C)c2nc1SCC#N	-9	-7	0.2	3	-10	1.2	-7	x	x	x
CC1(c2ccc3noc(-c4ccc(Cl)cc4)c3c2)OCCO1	17	-5	-2.4	-15	1	-2.6	0	x	x	x
CCCCc1nnc(NC(=O)CSc2nc(N)cc(=O)[nH]2)s1	1	1	0.3	-1	-7	-2.6	x	11	6	0.5
Cc1cc(=O)oc2cc(NC(=O)c3cccc(S(=O)(=O)N(C)C)c3)ccc12	11	-2	-1.7	2	0	4.5	4	2	6	-3.7

The last 2 records of the section above lead into the next:
SMILES	T cruzi inh	Calb FLC	A1 inh	B2AR ag	ALR H2O2 inh	LANA-H2A inh	Beta apoptosis	Ecoli rRNA inh	Ecoli rRNA inh OD600	Ecoli rRNA inh RFP
CCCCc1nnc(NC(=O)CSc2nc(N)cc(=O)[nH]2)s1	1	1	0.3	-1	-7	-2.6	x	11	6	0.5
Cc1cc(=O)oc2cc(NC(=O)c3cccc(S(=O)(=O)N(C)C)c3)ccc12	11	-2	-1.7	2	0	4.5	4	2	6	-3.7
CCOC(=O)C1(Cc2ccccc2)CCN(Cc2cccc3c2OCO3)CC1	2	-6	0.2	10	-4	-5.1	-1	-28	-40	3.3
CN(c1ccccc1)S(=O)(=O)c1ccc(Cl)c(C(=O)Nc2ccc(N3CCOCC3)cc2)c1	49	7	-0.1	-1	7	-2.6	-2	-10	-2	-0.4
COc1ccc(-c2[nH]ncc2CNCCc2ncccc2C)cc1F	-5	-6	-0.7	2	-2	1.7	-6	17	13	6.0
CC1(C)S[C@@H]2[C@H](NC(=O)COc3ccccc3)C(=O)N2C1C(=O)OCC1CCCCC1 (some centres undefined)	2	17	-1.0	-3	-1	5.0	1	-11	-9	2.2
COc1cc(C(=O)Nc2ccc(N(C)C)cc2)cc(OC)c1OC	0	-5	0.2	1	99*	1.0	3	x	x	x
CCc1ccc(C(=O)Nc2ccc(S(=O)(=O)Nc3nc(C)cc(C)n3)cc2)o1	-27	-1	-0.9	54*	-6	4.0	x	x	x	x
O=C(Nc1cccc(F)c1)C1CCCN1S(=O)(=O)c1cccc2cccnc12 (centres undefined)	-10	24	-0.2	0	4	-4.1	x	-4	-2	-0.2
O=C(NCCc1csc(-c2ccccc2)n1)c1ccccc1F	66*	-2	-0.2	12	-3	0.1	3	-24*	-9.1*	10*
Cc1ccc(CN(Cc2ccccc2)C(=S)Nc2ccccc2C)o1	-16	-8	-0.2	-7	0	1.2	-3	-19	-35	7.1
O=C(OCN1C(=O)c2ccccc2C1=O)c1ccccc1	-6	7	-0.2	19	0	1.2	-6	x	x	x
COCC(C)n1c(C)cc(C(=O)CSc2cc(C)c3ccccc3n2)c1C (centres undefined)	12	-2	0.8	-10	x	-1.7	-5	x	x	x
O=C(Nc1ccccc1N1CCOCC1)c1cccc(S(=O)(=O)N2CCOCC2)c1	x	x	0.9	-3	-3	1.0	-1	x	x	x
CC(Nc1cc(N2CCN(C(=O)C(C)(C)C)CC2)ccc1[N+](=O)[O-])c1ccccc1 (centres undefined)	32	41	-1.1	12	-3	3.5	42	x	x	x
O=C(COC(=O)C1CCC1)NCCc1ccc(Cl)cc1Cl	-25	-20	-0.2	-1	2	-3.7	-14	3	5	0.9
COCc1c(C(=O)N/N=C/c2ccc(C)o2)nnn1-c1nonc1N	-2	-5	0.8	2	x	-1.3	-7	7	5	2.6
Cc1cc(NC(=O)CCC(=O)N(CC(=O)NC2CCCC2)Cc2ccco2)no1	-4	3	0.7	-5	-16	2.2	-8	x	x	x
COc1ccc(S(=O)(=O)N2CCOCC2)cc1NC(=O)c1ccc2c(c1)OCO2	x	x	0.5	12	2	i	-5	x	x	x
CN(CC(=O)N1CCc2ccccc2C1)S(=O)(=O)c1ccc2c(c1)c(=O)n(C)c(=O)n2C	x	x	-0.5	-3	1	4.9	2	11	11	3.3
COc1ccc(OC)c(N2C(=O)C(Cl)=C(N3CCOCC3)C2=O)c1	-15	22	0.0	4	4	-4.6	-10	x	x	x
Cc1ncc([N+](=O)[O-])n1CC(=O)NCc1ccccc1	5	4	-0.8	-5	-1	1.8	-9	x	x	x
O=C(OCCCN=C1NS(=O)(=O)c2ccccc21)c1ccc(F)cc1	-6	24	-0.2	0	0	8.2	3	x	x	x
CC(=O)NNc1cc(C)nc(NS(=O)(=O)c2ccc(C)cc2)n1	-6	0	0.5	-6	12	5.1	-3	8	7	1.3
Cc1ccc(S(=O)(=O)N2CCN(CC(O)COc3ccccc3)CC2)cc1 (centres undefined)	-7	1	0.0	2	x	3.0	-1	11	8	3.6
NC(=O)C1CCN(C(=O)CC2(CC(=O)O)CCCC2)CC1	-7	3	-2.4	-3	-4	4.0	2	7	12	-0.3
COCCN(C(=O)COC(=O)CCC1CCCC1)c1c(N)n(Cc2ccccc2)c(=O)[nH]c1=O	1	x	0.7	-3	14	2.5	3	8	11	-2.9

Look-ups from the list:
COc1ccc(-c2[nH]ncc2CNCCc2ncccc2C)cc1F in Ecoli rRNA inh RFP is entered as 6.0
COCc1c(C(=O)N/N=C/c2ccc(C)o2)nnn1-c1nonc1N in T cruzi inh is entered as -2
COCC(C)n1c(C)cc(C(=O)CSc2cc(C)c3ccccc3n2)c1C (centres undefined) in Calb FLC is entered as -2
COc1ccc(OC)c(N2C(=O)C(Cl)=C(N3CCOCC3)C2=O)c1 in A1 inh is entered as 0.0

The list goes on:
SMILES	T cruzi inh	Calb FLC	A1 inh	B2AR ag	ALR H2O2 inh	LANA-H2A inh	Beta apoptosis	Ecoli rRNA inh	Ecoli rRNA inh OD600	Ecoli rRNA inh RFP
CCC(=O)Oc1ccc(C(=O)Nc2ccc3c(c2)C(=O)N(C2CCCCC2)C3=O)cc1	24	-3	0.4	3	-4	-2.0	5	x	x	x
Cc1oc(-c2ccccc2F)nc1CS(=O)CC(=O)NCc1ccc(F)cc1 (centres undefined)	10	0	0.4	3	99*	-1.3	0	-1	-5	-3.8
O=C(Cc1ccc(Br)cc1)OCC(=O)c1ccc2c(c1)OCCO2	-23	53	0.1	10	-10	-1.9	-9	x	x	x
Cn1nc(C(C)(C)C)cc1C(=O)Sc1cccc(Br)c1	34	-17	1.4	-5	99*	0.9	-13	x	x	x
CCN(CC)C(=O)c1ccc2c(c1)N(Cc1ccccc1)C(=O)CS2=O (centres undefined)	-1	5	-0.3	5	-5	-1.8	0	3	0	-1.1
O=C(CCc1ccc(S(=O)(=O)NC2CCCCC2)cc1)NCc1ccc(Cl)cc1	5	3	-0.1	-6	x	6.6	1	x	x	x
O=S(=O)(NCCCNS(=O)(=O)c1c(F)cccc1F)c1ccc2c(c1)OCCO2	x	x	-0.2	-3	1	-1.7	-11	-1	-6	5.2
CCOC(=O)C1=C(C)N(CC(C)C)C(=O)/C1=C\c1cccs1	22	-5	-0.8	-6	3	5.3	x	8	5	-0.9
O=C1CCCN1c1cc(Cl)ccc1Cl	-10	-6	0.6	5	-6	2.1	-6	x	x	x
Cc1noc(C)c1C(=O)NCc1ccccc1F	-12	6	0.3	7	4	5.5	x	30	21	6.0
COc1ccc(NC(=O)/C(C#N)=C/c2ccc[nH]2)c(OC)c1	2	-7	0.0	-6	-4	2.2	-1	-3	7	2.7
O=C(C[n+]1cc(-c2ccccc2)n2c1CCC2)OCc1ccccc1	-8	-6	0.9	3	-12	-0.2	-3	x	x	x
CCCCN(CC)CCCNC(=O)c1cc2cc3ccc(C)cc3nc2o1	17	5	-0.1	1	2	-1.2	0	-3	-3	0.3
CC1=Nc2cc(C(=O)NCc3ccco3)ccc2Sc2ccc(C)cc21	-31	12	-0.3	21	-5	1.7	14	x	x	x

An excerpt; count on the stated rates, not on these rows.
